Screening data deposited in PubChem by National Center for Advancing Translational Sciences (NCATS).
TRPML1 agonist – qHTS for Agonists of the Human Mucolipin Transient Receptor Potential 1 (TRPML1) | Mucolipin-1 (Homo sapiens), Q9GZU1 | TRPML1-expressing cells, Ca2+ dye fluorescence, FDSS; host cell line not named in the record; reference of the full effect not given here | activation, % (concentration not given with the values) | 410,000 tested, 0.12% active | AID 624414, 2012; in the data active = activation above about 50%; inconclusive = about 30% to 50%; inactive = below about 30%; note: 0% is about no effect; the text of the record puts the active cut at 80%
Target sequence (Q9GZU1 whole entry, looked up): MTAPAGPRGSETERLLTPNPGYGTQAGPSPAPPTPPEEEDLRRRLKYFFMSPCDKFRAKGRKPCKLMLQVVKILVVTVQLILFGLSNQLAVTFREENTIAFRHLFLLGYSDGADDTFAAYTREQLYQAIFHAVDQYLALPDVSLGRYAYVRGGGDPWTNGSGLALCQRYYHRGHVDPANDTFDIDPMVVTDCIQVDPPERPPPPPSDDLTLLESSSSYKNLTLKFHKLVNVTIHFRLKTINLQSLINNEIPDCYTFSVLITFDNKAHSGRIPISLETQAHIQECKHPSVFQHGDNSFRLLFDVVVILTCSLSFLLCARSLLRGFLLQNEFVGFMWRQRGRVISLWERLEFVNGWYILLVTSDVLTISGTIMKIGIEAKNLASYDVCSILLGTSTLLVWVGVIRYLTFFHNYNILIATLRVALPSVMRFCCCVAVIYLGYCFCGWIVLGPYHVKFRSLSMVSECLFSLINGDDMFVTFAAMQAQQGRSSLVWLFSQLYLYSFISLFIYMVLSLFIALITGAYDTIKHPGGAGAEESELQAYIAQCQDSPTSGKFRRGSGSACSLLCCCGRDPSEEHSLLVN
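Agonist activity was taken from a 110 s kinetic Ca2+ dye read on the FDSS after pinning compounds onto TRPML1-DL cells. The cells were seeded at 1,500/well with Tet inducer, incubated about 16 h, then dye-loaded at room temperature.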
TRPML1 blocker – qHTS for Inhibitors of the Human Mucolipin Transient Receptor Potential 1 (TRPML1); Mucolipin-1 (Homo sapiens), Q9GZU1; TRPML1-inducible cells, Ca2+ dye fluorescence, FDSS; stronger effect = lower value; inhibition of EC80 agonist-evoked calcium signal; 390,000 tested, 0.02% active; activity change, negative = inhibition, % (test concentration not listed); in the data active means activity change below about -50%; inconclusive means about -30% to -50%; inactive means above about -30%;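 note: stimulus is agonist 54-4 at its EC80 concentration; % is set by controls: 0 for no effect and ±100 for the full control effect; compound concentration not given in the record; the text of the record puts the active cut at -80%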
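Calcium fluorescence in TRPML1-DL cells induced overnight with Tet: a 110 s read after compound pin addition, then a 110 s antagonist read after challenge with 54-4 at 4 uM final (EC80).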
Menin-MLL FL inh – qHTS Assay for Inhibitors Targeting the Menin-MLL Interaction in MLL Related Leukemias: Competition With Fluorescein Labeled MLL-derived Peptide | AID 1766, 2009 | Fluorescence polarization, fluorescein-MLL peptide displacement from menin | FP activity change, % at 61.4 µM | 290,000 tested, under 10 active; inconclusive = falling polarisation curve, or a change in total fluorescence; inactive = total fluorescence flat and polarisation flat or rising; no compound was filed as active; the % refers to the polarisation; negative = inhibition;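 note: % of control where 0% means no effect; inhibitors lower the polarisation; unlabelled MLL peptide was the positive control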
PINK1 expr mod – A Quantitative High throughput Screen to Identify Chemical Modulators of PINK1 Expression; PINK1 immunofluorescence, high-content cytometry, 24 h; Potency, µM (top dose mostly 76.6 µM), without a hit: top-dose activation (PINK1 increase), usual class: activators; 410,000 tested, 0.2% active; active = well fitted activation curve with a large enough effect; inconclusive = small, poorly fitted or top-dose-only effect; inactive = flat fitted curve, though single readings scatter; cell line not stated here;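 note: potency is the fitted concentration of half-maximal effect; % of control where 0% means no effect; nearly all actives have a fitted effect of over 65% in size; a mitochondrial uncoupler was the plate control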
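Stable cell line treated 24 h with compounds at 5 concentrations (CCCP controls), then fixed and immunostained for PINK1 plus nuclear and cell stains; PINK1 immunofluorescence quantified by laser-scanning microplate cytometry.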
Sfp PPTase inh – qHTS Assay for Inhibitors of Bacillus subtilis Sfp phosphopantetheinyl transferase (PPTase); 310,000 tested, 3.5% active; 4'-phosphopantetheinyl transferase ffp (Bacillus subtilis), Q9F4F7; Biochemical Sfp PPTase activity, qHTS; AID 1490, 2009; Potency, µM, inactives show max response, negative = inhibition, hits mostly inhibitors; active = well fitted inhibition curve with a large enough effect; inconclusive = small, poorly fitted or top-dose-only effect, or another doubt; inactive = no such curve, though single readings can be large or run the other way;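 note: the enzyme is Sfp with the accession as filed and its product quenches rhodamine fluorescence; potency is the fitted concentration of half-maximal effect; 0% = enzyme reaction without inhibitor and -100% = no enzyme wells; top concentration of the series not given in the record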
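Fluorescence-quenching assay: 15 nM Sfp-PPTase preincubated 15 min at room temperature with compound, then 5 uM rhodamine-CoA and 12.5 uM BHQ-2-labelled YbbR peptide added. Fluorescence (ex 525/em 598 nm) read at start and after 30 min; difference gives rate.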
ClpP mod – qHTS Assay for Activators of ClpP. purified B. subtilis ClpP, FRET peptide cleavage, 20 min. 340,000 tested, 1.9% active. ATP-dependent Clp protease proteolytic subunit (Bacillus subtilis (strain 168)), P80244. AID 651965, 2013. Potency, µM (series often up to 57.5 µM), without a hit: at the top dose activity change, negative = active; active = well fitted falling curve with a large enough effect; inconclusive = small, poorly fitted or top-dose-only effect; inactive = no such curve, though single readings can be large or run the other way; note: potency is the fitted concentration of half-maximal effect; the source files actives as falling curves though it sought activators and does not explain the sign; nearly all actives have a fitted effect of over 65% in size; many hits overshoot -100%
Target sequence (P80244 whole entry, looked up): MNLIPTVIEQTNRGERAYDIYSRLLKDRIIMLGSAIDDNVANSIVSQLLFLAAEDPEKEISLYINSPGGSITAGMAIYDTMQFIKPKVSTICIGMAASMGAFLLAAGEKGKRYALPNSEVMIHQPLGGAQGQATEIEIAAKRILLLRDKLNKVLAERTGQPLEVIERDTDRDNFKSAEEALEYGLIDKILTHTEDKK
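FRET quenching reversal measured ClpP activation: 10 microg/mL B. subtilis ClpP at pH 8 with the FRET-FV decapeptide, read at 430 nm after 320 nm excitation. The 20-min minus 0-min signal was scaled between DMSO/no-enzyme wells and ADEP (5.8 microM final).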
TRPV1 potentiator – HTS Assay for Compounds that Act as Potentiators of the Vanilloid Receptor 1; potentiation, % at 8.33 µM; 320,000 tested, 0.02% active; AID 540277, 2011; TRPV1-expressing cells, Fluo-8 calcium influx, capsaicin EC20 potentiation; host cell line not named in the record; control for the full effect not named in the record; Transient receptor potential cation channel subfamily V member 1 (Homo sapiens), Q8NER1; active means potentiation above 80%; inconclusive means 30% to 80%; inactive means below 30%; note: 0% is about no effect
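Fluo-8 calcium influx in TRPV1-expressing cells, kinetic read (ex 480/em 520 nm). Compound added and read 3 min for agonist activity, followed by capsaicin at EC20 final and 2 min further read for enhancement.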
Active calls of the source: *; ? = inconclusive; · = not tested or not shown; [ ] = dose if it differs, or a comment.

Sequence of screens: TRPML1 agonist	TRPML1 blocker	Menin-MLL FL inh	PINK1 expr mod	Sfp PPTase inh	ClpP mod	TRPV1 potentiator
- COc1ccc(C2=NS(=O)(=O)N(C)C(C(=O)Nc3ccc(C(C)=O)cc3)=C2)cc1OC
 : 0.7	-9	-3.1	2.0%	7%	·	3
- CC(=O)NCCNc1nc2cc(-c3cscc3C)sc2c(=O)n1C
 : -1.1	·	·	3.6%	·	-23%	·
- O=C(CCCN1C(=O)c2ccccc2C1=O)Nc1ccc2c(c1)OCCO2
 : -0.7	0	2.5	0.0%	13%	·	-2
- CCOC(=O)C1(Cc2cccc(OC)c2)CCN(Cc2ccc(C)s2)CC1
 : 3.9	54	-0.3	15%	21%	·	-5
- Clc1ccc(C[n+]2csc3ccccc32)cc1
 : -0.1	-6	-3.1	12%	4µM*	-0.6%	-8
- CC1(C)Cc2c(C#N)c(NCc3ccco3)nc(-c3ccco3)c2CO1
 : -0.7	-2	?	?	3.5µM*	32µM*	-15
- CSc1ccc(N2CCN(CCCNC(=O)Nc3ccccc3F)CC2)cc1
 : 0.4	-1	-1.2	-3.1%[38.3 µM]	13%	-0.2%	12
- CCOc1ccccc1N1CCN(C(=O)c2cc3cc(OC)ccc3[nH]2)CC1
 : ·	·	-0.2	-1.1%	-26%	-16%	-14
- COc1ccc(N2C(=O)c3ccc(C(=O)OC(C)C)cc3C2=O)cc1
 : -0.7	4	1.7	8.3%	3%	-0.1%	-1
- Cc1cccc(-c2nc(CS(=O)CC(=O)N3CCc4ccccc4C3)c(C)o2)c1 (configuration not stated)
 : 1.6	20	-5.1	3.3%	40µM*	0.5%	·
- CC(C)Sc1nnc(CNC(=O)C23CC4CC(CC(C4)C2)C3)n1Cc1ccccc1
 : 0.1	9	4.9	1.1%	-6%	0.9%	-19
- CN(C)C(=O)c1cc(Cl)ccc1Sc1cc(Cl)ccc1Cl
 : 1.6	19	3.4	6.1%	-8%	1.3%	-1
- COc1ccc(C2=NOC(C(=O)N3CCOCC3)C2)cc1OC (configuration not stated)
 : 1.2	3	3.4	5.9%[38.3 µM]	3%	-0.6%	-2
- Cc1ccc(-c2nnn(CC(=O)N(c3ccccc3F)C(C(=O)NC3CCCC3)c3ccco3)n2)o1 (configuration not stated)
 : 1.2	7	4.0	4.3%[38.3 µM]	7%	1.6%	4
- C#CCOCCOCCOCCNc1nc(N2CCN(C(=O)[C@H](CCCN=C(N)N)n3cc(C(N)[C@@H](C)CC)nn3)CC2)nc(N2CCN(C(=O)[C@H](CCCCN)n3cc([C@@H](N)CC(N)=O)nn3)CC2)n1 (some centres not stated)
 : -0.6	6	·	1.4%	·	-4.0%	·
- COc1ccccc1CNC1CCCc2ccccc21 (configuration not stated)
 : -0.6	9	-12	0.4%	-11%	·	-9
- CCC(=O)Oc1ccc(/C(CC)=C(\CC)c2ccc(OC(=O)CC)cc2)cc1
 : 0.2	8	-2.1	2.2%	-4%	1.2%	-2
- CCNC(=S)Nc1ccc(Cc2nc3ccccc3[nH]2)cc1
 : 1.0	-2	-2.6	4.4%	6%	·	-2
- C=CCC1NS(=O)(=O)OC(CCCC)C1O (configuration not stated)
 : -0.3	5	-4.4	0.3%	17%	1.8%	-7
- CN(Cc1nc2ccccc2c(=O)[nH]1)C(=O)c1cccc(S(=O)(=O)N2CCc3ccccc32)c1
 : 2.6	19	·	0.4%	·	1.5%	·
- O=C(c1ccc(Br)c(S(=O)(=O)N2CCCCC2)c1)N1CCCCC1
 : 0.9	-6	-5.3	1.4%	11%	22µM*	-11
- Cn1c(=O)c(=O)n(C)c2cc(S(=O)(=O)CCC(=O)Nc3ccc(C(F)(F)F)cc3)ccc21
 : 1.2	17	·	-1.1%	4%	-8.6%	-1
- CCn1c(NCc2ccccc2Cl)nc2ccccc21
 : -1.3	-12	-1.6	-1.9%	-1%	1.4%	-3
- O=c1[nH]c(/C=C/c2ccccn2)nc2ccccc12
 : 1.6	-1	-13	0.9%	-3%	-16%	-3
- COc1ccc(S(=O)(=O)N2Cc3ccccc3CC2C(=O)O)cc1OC (configuration not stated)
 : 0.0	14	-0.3	0.4%	9%	0.3%	1
- C/C(=N/NC(=O)c1ccccn1)c1ccc(O)cc1
 : -0.4	-5	-0.4	1.6%	-25%	0.1%	2
- COc1cc(SC)ccc1C(=O)N1CCn2c3c(c4cc(C)ccc42)CCCC31 (configuration not stated)
 : 0.4	3	·	-0.1%	·	-4.4%	·
- COc1ccc(C(=O)NCC(=O)OCC(=O)c2cccc3ccccc23)cc1
 : -0.3	·	·	0.3%	·	-1.5%	·
- CCc1nnc2sc(-c3cc(-c4ccccc4)nc4ccccc34)nn12
 : 1.7	1	0.0	?	11%	-4.2%	-31
- CC(=O)c1cccc(Nc2nc(-c3cccc(C)c3)nc3ccccc23)c1
 : 2.0	13	·	4.9%	·	-20%	·
- COc1cc(OC)cc(-c2nc(-c3ccc4c(c3)[nH]c(=O)n4C)no2)c1
 : 1.8	17	·	-3.6%	·	0.2%	·
- Cc1[nH]n(-c2cccc3ccccc23)c(=O)c1/C=N/NC(=O)c1cccc([N+](=O)[O-])c1
 : -0.2	-6	0.3	0.1%	28%	-1.5%	-17
- CC(C)C[C@H]1CNC(=S)N1C[C@H]1CCCN1C[C@H](Cc1ccccc1)N1C[C@H](Cc2ccc(O)cc2)N(CC2CCCCCC2)C1=S
 : -0.6	-11	·	8.1%	·	0.9%	·
- Cc1cccc(NC(=O)CC2NCCNC2=O)c1 (configuration not stated)
 : 0.5	-8	-4.3	1.0%	16%	0.4%	-18
- CC(C)(C)NC(=O)C(=O)NCCC1=CCCCC1
 : -0.3	-16	0.2	1.3%	-14%	0.7%	-25
- CN1OC[C@@H]2CN(Cc3ccccc3)[C@H](c3ccc(-n4ccnc4)cc3)C[C@@H]21
 : 0.3	·	·	0.7%	·	-3.1%	·
- O=C(c1ccc(Cl)s1)N1CCN(C23CC4CC(CC(C4)C2)C3)CC1
 : 2.3	7	·	-1.0%	26%	-3.9%	-18
- CCc1ccc(/C=C\C(=O)N2CCCC2)cc1
 : 1.2	0	·	0.4%	·	·	·
- CC(C)(C)NC(=O)C1CCN(c2ccc(S(=O)(=O)N3CCOCC3)cc2Cl)CC1
 : -0.3	-1	-3.6	3.1%	18%	-5.6%	-14
- CC(C)(CNC(=O)c1cccs1)N1CCOCC1
 : 0.3	32	·	1.1%	·	-0.8%	8
- CSc1ccccc1NC(=O)c1noc(C)c1[N+](=O)[O-]
 : 0.2	-10	·	0.9%	45µM*	-0.8%	10
- CC(C)OC(=O)c1cn(-c2ccccc2)nc1-c1ccc2c(c1)OCCO2
 : 0.6	-8	2.4	4.2%[38.3 µM]	?	?	-13
- CCOC(=O)c1cccc(NC(=O)C2CCCO2)c1 (configuration not stated)
 : -0.6	25	8.2	-0.3%	18%	-0.4%	-7
- O=[N+]([O-])c1ccc(O)c(P(=O)(c2ccccc2)c2ccccc2)c1
 : 0.1	0	2.0	-0.3%	3%	·	?
- COc1ccc(NS(=O)(=O)c2ccc(NC(=S)NC(=O)/C=C/c3ccccc3)cc2)nn1
 : 1.1	3	-0.8	1.6%	-3%	0.9%	2
- CCC(=O)Nc1sc(C(=O)Nc2ccccc2OC)c(C)c1C(=O)OC
 : -0.1	16	0.7	12%	19%	·	-5
- Cc1cccc(C)c1N1C(=O)CCC(C)(C)C1=O
 : 2.6	1	0.9	-0.9%	6%	2.4%	-6
- CCCN1CCN(CCNC(=O)Nc2cc(C)ccc2OC)CC1
 : -0.7	7	·	1.2%	·	0.7%	·
- Cc1nnc(SCC(=O)N2CCCc3ccccc32)[nH]c1=O
 : -0.8	-3	2.5	-2.4%	7%	-3.0%	-7
- CCCNC(=O)c1c2c(nc3ccccc13)C(=O)N(C1CCCCC1)C2
 : -0.5	-9	·	1.2%	·	?	·
- N#Cc1ccc(CSc2nnc(-c3ccncc3)n2CCc2ccccc2)cc1
 : 1.6	-4	0.6	-2.1%	5%	0.4%	3
- CCN1C(=O)/C(=C\c2ccc3c(c2)OCO3)C(C(=O)OC)=C1C
 : 2.8	-10	2.2	-0.5%	-7%	0.0%	3
- CC(C)(C)NS(=O)(=O)c1ccc(NS(=O)(=O)Cc2ccccc2)cc1
 : 0.1	10	5.2	22%[38.3 µM]	15%	2.0%	0
- CC(=O)Nc1ccccc1C(=O)C(=O)NCCc1ccccc1
 : -0.9	-8	1.0	0.7%	19%	0.5%	-2
- Cc1cccc(N2CCN(C(=O)COc3noc4nc(C)cc(C)c34)CC2C)c1 (configuration not stated)
 : -0.6	-1	·	0.0%	·	-2.7%	·
- Cc1cc(NC(=O)NC(=O)c2cccc(OC(F)(F)C(F)F)c2)n[nH]1
 : 0.1	2	4.0	0.3%	9%	0.5%	12
- O=C(NCCCN1CCOCC1)c1cn(-c2ccccc2)nc1-c1ccc(F)cc1
 : 0.3	-15	·	-0.3%	·	-22%	·
- O=C(COC(=O)C1CC(=O)N(Cc2ccccc2)C1)Nc1ccc([N+](=O)[O-])cc1Br (configuration not stated)
 : 0.0	3	·	-0.3%	·	0.6%	·
- CCOC(=O)c1ccc(NC(=S)NNC(=O)c2cc(-c3cccnc3)nc3ccccc23)cc1
 : 1.1	33	·	1.5%	7%	6.2%	20
- Cc1ccc(-c2noc(-c3cc(C(C)(C)C)nn3Cc3ccccc3)n2)cc1
 : -0.1	7	3.0	11%	-5%	2.3%	·
- Cc1ccc(S(=O)(=O)N2CCN(C(=O)CN3CCN(C)CC3)C2)cc1
 : 1.1	24	2.9	1.8%[38.3 µM]	11%	-2.3%	10
- O=C(N/N=C/c1cccc(OCc2ccccc2)c1)c1ccc(Br)o1
 : 2.4	14	2.4	-0.1%	11%	1.1%	-7
- CCCCOC(=O)c1ccc(NC(=O)c2ccc3c(c2)CCCN3S(C)(=O)=O)cc1
 : 1.1	-5	·	1.7%	·	?	·
